Bioassay records from PubChem BioAssay.
H5N1 CPE – MDCK cell protection from H5N1 avian flu; cytopathic effect, luminescence, 72 h; active compounds read high; no value below 0 was filed and about half of the inactive calls have no number; reference of the scale not given here; inhibition, % at 50 µM; 96,000 compounds, 0.07% hits; AID 740; in the data active = inhibition above about 25%
An asterisk follows results filed as active. Only part of the results is shown; count on the stated rates, not on these rows.

Screening c1ccc(CCn2nnnc2CN2CCN(C3CCCC3)CC2)cc1 returned H5N1 CPE inactive.
`Cc1noc(NS(=O)(=O)c2ccc(NC(=O)CSc3nc4c(cc3C#N)CCCCC4)cc2)c1C` gave H5N1 CPE 0.9.
`COc1ccccc1N1CCN(C(=O)Oc2ccccc2)CC1` gave H5N1 CPE 0.7.
COc1ccc(-c2oc3ncn4nc(Cc5ccccc5)nc4c3c2-c2ccc(OC)cc2)cc1 was read as H5N1 CPE inactive.
For CCOc1ccc(OCC)c(NC(=O)C2CCN(c3nn4c(=O)cc(C)nc4s3)CC2)c1 the results were H5N1 CPE 0.3.
CCOC(=O)Cc1csc(/C(=N/O)C(N)=O)n1 was read as H5N1 CPE 0.3.
Screening COc1ccc(CC(=O)Nc2ccc(/C(C)=N/NC(=O)c3cccc([N+](=O)[O-])c3)cc2)cc1 returned H5N1 CPE 0.7.
CC1CCCN(Cc2nc3c(c(=O)n(C)c(=O)n3C)n2CCc2ccccc2)C1 (stereo not drawn) was read as H5N1 CPE 1.4.
`COc1ccc(NC(=O)C2CCCCN2S(=O)(=O)c2ccc(F)cc2)c(OC)c1` (stereo not drawn) gave H5N1 CPE 0.3.
`COc1cc(CC(=O)OCC(=O)Nc2ncc(Cl)cc2Cl)cc(OC)c1OC` gave H5N1 CPE 0.0.
`O=C(NCc1ccco1)c1ccc(NC(=O)C2COc3ccccc3O2)cc1` (stereo not drawn) gave H5N1 CPE inactive.
`CC(=O)c1cccc(NC(=O)C2C3C=CC(C4CC34)C2C(=O)O)c1` (stereo not drawn) gave H5N1 CPE 0.8.
For COCCCn1[nH]c2c3c(ccc2c1=O)C(=O)c1ccccc1C3=O the results were H5N1 CPE inactive.
For COc1ccc(-c2cc(-c3c(O)c(OC)c4occc4c3OC)[nH]n2)cc1 the results were H5N1 CPE inactive.
`c1cncc(-c2noc(-c3cccc4ccccc34)n2)c1` gave H5N1 CPE 1.8.
For CCc1nc(C)ccc1OCC(=O)N(CC)CC the results were H5N1 CPE inactive.
For N#Cc1cc2ccccc2nc1SCc1ccccn1 the results were H5N1 CPE 2.3.
For Oc1cnc2ccccc2c1CN1CCOCC1 the results were H5N1 CPE 0.3.
Screening O=C(CSc1nnc(NC(=O)c2ccco2)s1)NC1CCCC1 returned H5N1 CPE 0.8.
Screening CCc1ccccc1NC(=O)N1C2CCCC1CC(NC(=O)C(C)(C)C)C2 (stereo not drawn) returned H5N1 CPE inactive.
Screening CC(C)c1nc(-c2ccccn2)no1 returned H5N1 CPE inactive.
`CCOc1ccc(N(CC(=O)O)S(=O)(=O)c2cccnc2)cc1` gave H5N1 CPE 0.7.
`CC(C)(C)c1ccc(C(=O)NNC(=O)Cc2cccc3ccccc23)cc1` gave H5N1 CPE 0.9.
For CC(=O)CC(C)(C)n1c[n+](C)nn1 the results were H5N1 CPE 2.9.
`CCn1cc(/C=N/NS(=O)(=O)c2ccc(OC)cc2)c(C)n1` gave H5N1 CPE 0.6.
O=C(NC1CCCC1)c1ccc(CS(=O)(=O)c2ccc(Br)cc2)o1 was read as H5N1 CPE 1.1.
Screening c1ccc2c(c1)CCN(c1ncnc3c1[nH]c1ccccc13)C2 returned H5N1 CPE 1.8.
Screening Cc1ccc(-c2cc(C(F)F)n3ncc(C(=O)N4CCN(c5cccc(C)c5C)CC4)c3n2)cc1 returned H5N1 CPE 11.5.
For CC(C)Cn1c(SC(C)C(=O)Nc2ccc3c(c2)OCCO3)nc2ccccc2c1=O (stereo not drawn) the results were H5N1 CPE 1.1.
`CCOCCNC(=O)c1ccccc1C(=O)NCCOCC` gave H5N1 CPE 0.1.
C#CCSc1nncn1C(=O)/C=C/c1ccccc1 was read as H5N1 CPE inactive.
For CC1CCc2nc3ccc(S(=O)(=O)N4CCC(C(=O)N5CCCCC5)CC4)cc3c(C(=O)O)c2C1 (stereo not drawn) the results were H5N1 CPE 0.9.
Screening Cc1cccc(NC(=O)c2cnc3ccccn3c2=O)c1 returned H5N1 CPE 0.2.
CCCc1c(C)c2cccc(C)c2[nH]c1=O was read as H5N1 CPE inactive.
For CNc1nc(CCN2C(=O)c3ccccc3C2=O)cs1 the results were H5N1 CPE 1.8.
For c1ccc(CCn2c(C3CC3)nc3ccccc32)cc1 the results were H5N1 CPE 1.5.
`Cc1ccc(C2Nc3ccccc3-c3nc4ccccc4n32)o1` (stereo not drawn) gave H5N1 CPE 0.3.
`Nc1cc2c([N+](=O)[O-])cccc2o1` gave H5N1 CPE 7.8.
Screening Cc1n[nH]c(=O)nc1NC1CCCCC1 returned H5N1 CPE 0.7.
`CN(C)S(=O)(=O)c1ccc(S(=O)(=O)Nc2ccc3c(c2)oc2ccccc23)cc1` gave H5N1 CPE inactive.
`COc1cccc(S(=O)(=O)Nc2ccc(C(=O)NCc3ccco3)cc2)c1` gave H5N1 CPE inactive.
`CC(=O)Nc1ccc(NC(=O)C2CC(=O)N(c3cccc(C)c3C)C2)cc1` (stereo not drawn) gave H5N1 CPE 0.5.
For CCc1c(C)nc2ncnn2c1NCCc1ccccc1 the results were H5N1 CPE 3.3.
CCc1cccc(C)c1N(C(=O)Cn1c(COC)nc2ccccc21)C(C)COC (stereo not drawn) was read as H5N1 CPE 1.3.
`O=C(Nc1ccc(N2C(=O)C3C4C=CC(C4)C3C2=O)cc1)Nc1nnc(C(F)(F)F)s1` (stereo not drawn) gave H5N1 CPE 0.8.
`COc1cccc(C(=O)Cn2c(=N)n(C)c3ccccc32)c1` gave H5N1 CPE inactive.
Screening CCc1noc(C)c1C(=O)N1CCCC1 returned H5N1 CPE inactive.
`CCCCCc1nnc(NC(=O)Cc2cccs2)s1` gave H5N1 CPE 0.5.
`CCCN1Cc2cccc(C(=O)NCc3ccccc3)c2C1=O` gave H5N1 CPE 1.9.
`CCN(CC)S(=O)(=O)c1ccc(/C(O)=C2/C(=O)C(=O)N(CCOC)C2c2ccccc2)cc1` (stereo not drawn) gave H5N1 CPE 0.6.
Screening O=C1NC(=O)C2(Cc3c(nc4ccccn4c3=O)N3CCCCCC32)C(=O)N1Cc1ccccc1 (stereo not drawn) returned H5N1 CPE 0.4.
Screening CCOC(=O)Cn1cc([N+](=O)[O-])c(OC)n1 returned H5N1 CPE inactive.
CCOC(=O)N1CCN(c2c(NCCCN(CC)Cc3ccccc3)c(=O)c2=O)CC1 was read as H5N1 CPE 0.6.
`CC(=O)Nc1ccc(S(=O)(=O)NC(CC(=O)NCCc2ccccc2)C(C)C)cc1` (stereo not drawn) gave H5N1 CPE inactive.
COc1ccc2c(c1OC)C(=O)OC2Nn1cncn1 (stereo not drawn) was read as H5N1 CPE 0.0.
For COc1ccccc1-c1noc(-c2ccccc2)n1 the results were H5N1 CPE inactive.
For NC(=O)C1(N2CCCCC2)CCN(C(=O)CSc2nc3ccccc3s2)CC1 the results were H5N1 CPE 0.1.
For CCCCCNC(=O)CC1Nc2c3ccccc3nc(=S)n2C1=O (stereo not drawn) the results were H5N1 CPE inactive.
For O=C(Cn1nc(-c2ccccc2)ccc1=O)NCCN1CCN(c2cccc(Cl)c2)CC1 the results were H5N1 CPE inactive.
N#C/C(=C/c1ccc(N2CCOCC2)o1)c1ccc(Br)cc1 was read as H5N1 CPE inactive.
`C=CCSc1nnc2n(CCc3ccccc3)c(=O)c3c4c(sc3n12)COC(C)(C)C4` gave H5N1 CPE 0.8.
Screening c1ccc(C2CCC(N3CCC(N4CCCCC4)CC3)CC2)cc1 (stereo not drawn) returned H5N1 CPE inactive.
`CCCCn1nc2cc(C(=O)NC3CCCc4ccccc43)ccc2c1OCC` (stereo not drawn) gave H5N1 CPE 1.4.
`CCc1cc2c(=O)c(-c3nc4ccccc4n3C)c(C)oc2c(CN2CCN(CCO)CC2)c1O` gave H5N1 CPE inactive.
CCCCOc1c(Cl)cc(CNC(C)(C)CO)cc1OCC was read as H5N1 CPE inactive.
`Cc1ccc(NS(=O)(=O)c2cccc(C(=O)N3CCOCC3)c2)cc1` gave H5N1 CPE 2.1.
`O=C(CCCOc1ccccc1)Nc1nnc(C2CCCO2)s1` (stereo not drawn) gave H5N1 CPE inactive.
For CN(Cc1ccccc1)C(=O)c1cc(-c2ccc(Br)cc2)on1 the results were H5N1 CPE inactive.
Screening c1ccc(Cn2nnc3c(N4CCN(Cc5ccc6c(c5)OCO6)CC4)ncnc32)cc1 returned H5N1 CPE inactive.
Cc1ccc(S(=O)(=O)N2CCC(C(=O)N3CCC(C(=O)NCC4CCCO4)CC3)CC2)cc1 (stereo not drawn) was read as H5N1 CPE inactive.
For CCc1ccc(CCC(=O)Nc2nc(CC(C)=O)ns2)o1 the results were H5N1 CPE 0.5.
CC(=O)Nc1cccc(NC(=O)CCn2c(=O)sc3ccccc32)c1 was read as H5N1 CPE 0.5.
Cc1ccc(CCN2CC(C(=O)N3CCC4(CC3)OCCO4)CC2=O)cc1 (stereo not drawn) was read as H5N1 CPE inactive.
For COc1ccc(/C(O)=C(\C#N)c2nc3ccccc3n2C)cc1OC the results were H5N1 CPE inactive.
`O=C(NCCSc1c[nH]c2ccccc12)c1ccc(Br)o1` gave H5N1 CPE 0.4.
`C=CCn1c(=S)[nH]c2nc3c(cc2c1=O)CCCC3` gave H5N1 CPE 6.5.
O=C(CCc1ccc(S(=O)(=O)NCCc2ccccc2)cc1)N1CCN(Cc2ccc3c(c2)OCO3)CC1 was read as H5N1 CPE 0.3.
COC(=O)c1sc2ccccc2c1-n1cccc1C(=O)C(=O)Nc1ccccc1 was read as H5N1 CPE inactive.
`CC(=O)c1ccc(NC(=O)N[C@@H](CC(C)C)C(=O)O)cc1` gave H5N1 CPE inactive.
For O=C(CCSCc1ccccc1F)N1CCN(c2ccccn2)CC1 the results were H5N1 CPE inactive.
For CC(C)NC(=O)NC(=O)COC(=O)c1ccc(NC(=O)CC#N)cc1 the results were H5N1 CPE inactive.
Screening Cc1ccc(S(=O)(=O)N2CCC(C(=O)NCc3cccnc3)CC2)cc1 returned H5N1 CPE 1.1.
For CCC(C)NC(=O)C1CCN(C(=O)c2ccccc2)CC1 (stereo not drawn) the results were H5N1 CPE 1.7.
For O=C(Nc1ccn(Cc2c(F)c(F)c(F)c(F)c2F)n1)c1ccc(COc2ccccc2Cl)cc1 the results were H5N1 CPE 1.0.

13 entries already listed, ordered by length of the SMILES, lowest first.
`O=C(CCCOc1ccccc1)Nc1nnc(C2CCCO2)s1` (stereo not drawn) gave H5N1 CPE inactive.
For CCC(C)NC(=O)C1CCN(C(=O)c2ccccc2)CC1 (stereo not drawn) the results were H5N1 CPE 1.7.
`O=C(NCCSc1c[nH]c2ccccc12)c1ccc(Br)o1` gave H5N1 CPE 0.4.
For CN(Cc1ccccc1)C(=O)c1cc(-c2ccc(Br)cc2)on1 the results were H5N1 CPE inactive.
For COc1ccc(/C(O)=C(\C#N)c2nc3ccccc3n2C)cc1OC the results were H5N1 CPE inactive.
CC(=O)Nc1cccc(NC(=O)CCn2c(=O)sc3ccccc32)c1 was read as H5N1 CPE 0.5.
`CC(=O)c1ccc(NC(=O)N[C@@H](CC(C)C)C(=O)O)cc1` gave H5N1 CPE inactive.
For CC(C)NC(=O)NC(=O)COC(=O)c1ccc(NC(=O)CC#N)cc1 the results were H5N1 CPE inactive.
Screening Cc1ccc(S(=O)(=O)N2CCC(C(=O)NCc3cccnc3)CC2)cc1 returned H5N1 CPE 1.1.
COC(=O)c1sc2ccccc2c1-n1cccc1C(=O)C(=O)Nc1ccccc1 was read as H5N1 CPE inactive.
Screening c1ccc(Cn2nnc3c(N4CCN(Cc5ccc6c(c5)OCO6)CC4)ncnc32)cc1 returned H5N1 CPE inactive.
For O=C(Nc1ccn(Cc2c(F)c(F)c(F)c(F)c2F)n1)c1ccc(COc2ccccc2Cl)cc1 the results were H5N1 CPE 1.0.
O=C(CCc1ccc(S(=O)(=O)NCCc2ccccc2)cc1)N1CCN(Cc2ccc3c(c2)OCO3)CC1 was read as H5N1 CPE 0.3.

New compounds follow:
`CC(C)(C)n1nnnc1C(c1cccnc1)N(Cc1ccccc1)Cc1ccco1` (stereo not drawn) gave H5N1 CPE 9.1.
Screening CC(C)(Oc1ccc(Cl)cc1)C(=O)OCC(=O)Nc1ncc(Cl)cc1Cl returned H5N1 CPE inactive.
For COc1ccc(CC(=O)Nc2c3c(nn2C(C)(C)C)CS(=O)C3)cc1 (stereo not drawn) the results were H5N1 CPE 0.9.
`O=C(NCc1ccc2c(c1)OCO2)c1ccc(NS(=O)(=O)c2ccc3c(c2)OCCO3)cc1` gave H5N1 CPE 0.8.
C=CCN1C(=O)C(Cc2ccc(OCC)cc2)S/C1=N\N=C\c1cccs1 (stereo not drawn) was read as H5N1 CPE 2.5.
CCOC(=O)c1ccccc1NC(=O)c1ccccc1SC was read as H5N1 CPE 0.1.
Screening COc1ccccc1NC(=O)N(c1c(N)n(Cc2ccccc2)c(=O)[nH]c1=O)C1CCCC1 returned H5N1 CPE inactive.
Cn1c(=O)c2cc(S(=O)(=O)N3CCN(c4cccc(C(F)(F)F)c4)CC3)ccc2n(C)c1=O was read as H5N1 CPE 0.7.
For COc1ncnc(OC)c1NC(=O)c1ccc(F)cc1 the results were H5N1 CPE inactive.
`Clc1cccc(CON/C=N/c2ncnc3sccc23)c1` gave H5N1 CPE inactive.
COc1cc(OC)cc(C(=O)Nc2ccc(S(=O)(=O)N(C)C)cc2)c1 was read as H5N1 CPE 8.9.
Screening Cc1csc(NC(=O)c2nc3nccc(C)n3n2)n1 returned H5N1 CPE 0.9.
For CC1CCCN(C(=O)COC(=O)c2n[nH]c3ccccc23)C1 (stereo not drawn) the results were H5N1 CPE inactive.
CC1CCCN(c2nc3ccsc3c(=O)s2)C1 (stereo not drawn) was read as H5N1 CPE 9.7.
COc1ccc(OCCC(=O)NC2=NCCS2)cc1 was read as H5N1 CPE inactive.
`CN1CCN(c2nc(N3CCN(CCO)CC3)nc3ccccc23)CC1` gave H5N1 CPE 2.0.
For COc1ccc(-n2c(Cn3c(=O)sc4ccccc43)nnc2SCC(=O)N2CCOCC2)cc1 the results were H5N1 CPE 2.0.
Screening CCCc1noc2c1/C(=N\O)CCC2 returned H5N1 CPE inactive.
CC1CCN(c2c([N+](=O)[O-])c(=O)n(-c3ccccc3)c3ccccc23)CC1 was read as H5N1 CPE 0.6.

Grouped by structure, those above with a CF3 group.
`O=C(Nc1ccc(N2C(=O)C3C4C=CC(C4)C3C2=O)cc1)Nc1nnc(C(F)(F)F)s1` (stereo not drawn) gave H5N1 CPE 0.8.
Cn1c(=O)c2cc(S(=O)(=O)N3CCN(c4cccc(C(F)(F)F)c4)CC3)ccc2n(C)c1=O was read as H5N1 CPE 0.7.
